# Rango-impB inh: Rango-importin beta binding inhibition. Rango CFP/YFP FRET sensor + importin beta, 45 min. hit rate 0.031% among 340,000. Q14974. Potency, µM (series often up to 92.2 µM), inactives show at the highest dose inhibition of complex formation; active = rising FRET ratio curve, often small or poorly fitted; inconclusive = mostly compound fluorescence or quenching in the first reads; inactive = flat curves in all reads;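 note: potency is the fitted concentration of half-maximal effect; 0% = DMSO wells and 100% = buffer wells lacking importin beta; nearly all actives have a fitted effect of over 15% in size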
# Target sequence (Q14974 whole entry, looked up): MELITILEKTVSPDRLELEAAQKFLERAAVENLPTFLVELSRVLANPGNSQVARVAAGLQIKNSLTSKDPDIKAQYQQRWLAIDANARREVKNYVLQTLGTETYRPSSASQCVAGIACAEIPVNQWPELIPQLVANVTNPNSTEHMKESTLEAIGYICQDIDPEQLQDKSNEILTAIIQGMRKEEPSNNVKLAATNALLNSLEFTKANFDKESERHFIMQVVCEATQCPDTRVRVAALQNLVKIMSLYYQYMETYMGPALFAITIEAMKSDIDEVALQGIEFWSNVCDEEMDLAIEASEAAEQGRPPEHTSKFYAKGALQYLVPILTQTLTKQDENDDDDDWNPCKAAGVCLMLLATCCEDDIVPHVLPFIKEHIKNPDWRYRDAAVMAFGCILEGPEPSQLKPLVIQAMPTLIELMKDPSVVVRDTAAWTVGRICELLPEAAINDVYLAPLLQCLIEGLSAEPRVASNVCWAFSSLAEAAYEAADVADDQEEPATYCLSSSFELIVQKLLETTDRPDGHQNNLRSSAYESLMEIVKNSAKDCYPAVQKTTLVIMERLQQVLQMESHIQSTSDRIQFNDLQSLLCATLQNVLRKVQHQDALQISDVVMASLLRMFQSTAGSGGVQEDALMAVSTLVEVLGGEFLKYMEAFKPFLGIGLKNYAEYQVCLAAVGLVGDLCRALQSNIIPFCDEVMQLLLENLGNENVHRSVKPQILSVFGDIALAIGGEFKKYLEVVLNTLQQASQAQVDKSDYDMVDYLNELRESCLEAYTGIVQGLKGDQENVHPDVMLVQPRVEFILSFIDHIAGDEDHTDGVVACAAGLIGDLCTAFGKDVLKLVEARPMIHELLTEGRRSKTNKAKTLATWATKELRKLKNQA
#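 FRET biosensor Rango (snurportin 1 IBB between N-terminal EYFP and C-terminal Cerulean), 50 nM in PBS/1 mM DTT/0.02% Tween-20/0.1% BSA, preincubated 5 min RT with compound; 0.125 microM importin beta added, 45 min RT, CFP/YFP FRET ratio read.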
# Rango dissoc inh: prevents RanGTP from dissociating the Rango-importin beta complex. AID 540253. Biochemical FRET Rango-importin beta, RanGTP-induced dissociation. O95149+P62826. Potency, µM (titrated, usually from 46.1 µM), without a hit: top-dose activity change, negative = inhibition. hit rate 0.071% among 340,000; active means falling FRET ratio curve, often poorly fitted, with flat reads before Ran was added; inconclusive means other falling curves, or compound fluorescence or quenching; inactive means flat or rising ratio curve;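 note: potency is the fitted concentration of half-maximal effect; % of control where 0% means no effect; nearly all actives have a fitted effect of over 45% in size; -100% = wells without RanGTP and RCC1; the record marks most hits as doubtful in a second field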
#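 FRET read at 45 min, room temperature: inhibitors block the CFP/YFP signal rise when RanGTP (0.6 uM Ran, 2 mM GTP, 0.2 uM RCC1) frees Rango (0.1 uM) from importin beta (0.25 uM). Pre-read after 5 min compound exposure flags interference.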
# miR-21 reporter: raises the signal of a miR-21 reporter; HeLa miR-21 FLuc reporter, luciferase, 48 h; 340,000 tested, under 10 active; Potency, µM (highest dose often 38.3 µM), without a hit: top-dose reporter change, positive = more light; active = well fitted rising curve with a large enough effect; inconclusive = small, poorly fitted or top-dose-only effect; inactive = no such curve, though single readings can be large or run the other way;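 note: % of control where 0% means no effect; miR-21 action dims this reporter so a rising signal means less miR-21 action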
#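 Luminescence from a firefly luciferase reporter carrying a miR-21 binding site downstream, stably expressed under a CMV promoter in HeLa cells that make miR-21 endogenously, reports miRNA modulation after 48 h compound exposure up to approximately 40uM final.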
# GLA inh pH 4.5: inhibitors of human alpha-galactosidase A at pH 4.5; AID 1467; purified enzyme, 4-MU-alpha-Gal fluorescence, pH 4.5; activity change, negative = inhibition, % at 105 µM; 230,000 tested, under 10 active; inconclusive = small, poorly fitted or top-dose-only inhibition, or a rising curve; inactive = flat fitted curve, though single readings scatter; no compound was filed as active;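 note: 0% = full activity with enzyme and -100% = basal without enzyme; dose as in the result columns while the protocol names 77 µM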
# * hit, by the source's call; ? = inconclusive; · = no result given; & = joins results of further samples. These rows are one share of the data; rates above refer to the full screens.
SMILES,Rango-impB inh,Rango dissoc inh,miR-21 reporter,GLA inh pH 4.5
COc1ccc(NC(=O)C2CCN(C(=O)Cc3ccccc3)CC2)cc1OC,-1.7%,13.4%,0.0%,-2.9
CCS(=O)(=O)c1ccc(C=NNc2nc3ccccc3o2)cc1,?,0.7%,·,·
CCOc1ccc(CCNS(=O)(=O)c2c(C)n[nH]c2C)cc1OCC,-3.9%,0.4%,0.2%,-0.3
Cn1c(=O)c2cc(S(=O)(=O)NCCC(=O)NCc3ccccc3Cl)ccc2n(C)c1=O,0.5%,9.4%,-2.1%,4.6
O=C(/C=C/c1c(Cl)nc2ccccn12)N1CCN(c2ccc(F)cc2)CC1,0.9%,5.1%,-6.1%,3.2
Cc1ccc(NC(=O)/C(C#N)=C/c2ccccc2C(F)(F)F)cc1,1.5%,-11.6%,-1.2%,-6.6
Cc1ccccc1-c1nc(CN2CCC(C(=O)NCCCN3CCCC3)CC2)c(C)o1,1.1%,1.5%,-13.9%,4.0
O=C(NCc1ccco1)c1ccc2c(c1)OCCO2,0.5%,1.2%,-24.2%,·
COc1ccc(-c2ccnc3cc(C(=O)O)nn23)cc1,?,-4.4%,0.6%,5.8
CCOC(=O)c1c(CN2CCN(C)CC2)oc2ccc(O)cc12,-2.1%,15.9%,-0.1%,-6.8
O=C(CSc1nnc(Cc2csc(Nc3cccc(Cl)c3)n2)o1)N1CCc2ccccc21,-1.4%,-17.7%,24.1%,-2.6
COc1cccc(CNc2ccc3[nH]c(=O)[nH]c3c2)c1OCc1ccc(F)cc1,0.7%,2.6%,17.6%,·

# Entries of single compounds as entered above.
# Record of O=C(CSc1nnc(Cc2csc(Nc3cccc(Cl)c3)n2)o1)N1CCc2ccccc21 = Rango-impB inh = -1.4%; Rango dissoc inh = -17.7%; miR-21 reporter = 24.1%; GLA inh pH 4.5 = -2.6
# Record of CCS(=O)(=O)c1ccc(C=NNc2nc3ccccc3o2)cc1 = Rango-impB inh = ?; Rango dissoc inh = 0.7%; miR-21 reporter = ·; GLA inh pH 4.5 = ·

# (next part)
SMILES,Rango-impB inh,Rango dissoc inh,miR-21 reporter,GLA inh pH 4.5
CC(C)NC(=O)CCc1nc2cccnc2n1-c1ccccc1,6.3%,-8.1%,-1.7%,·
O=C(N/N=C/c1cccc(F)c1)c1c(O)c2c([nH]c1=O)CCCC2,0.0%,-5.3%,-32.6%,0.9
Oc1c(Br)cc(Br)cc1CNc1cnc2ccccc2c1,?,-15.7%,-8.6%,·
COc1ccccc1NC(=O)NCCN1C(=O)C2C3C=CC(C3)C2C1=O (configuration not stated),0.1%,2.6%,-1.4%,-2.7
CCOC(=O)c1[nH]c2ccccc2c1NC(=O)c1ccc(S(=O)(=O)N(C)C)cc1,4.7%,-3.4%,-4.7%,1.5
O=C(NNc1ccc(Cl)cc1)C1CCC1,8.2%,-7.4%,15.9%,-4.1
Brc1ccccc1OCCNCc1ccccc1,2.4%,0.1%,-27.2%,5.2
O=C(NCCc1ccccc1)c1cnc2ccccc2n1,2.2%,-5.6%,-57.1%,·
Cc1c(NC(=O)c2cc3nc(-c4ccccc4)cc(C)n3n2)c(=O)n(-c2ccccc2)n1C,-2.7%,0.7%,-5.5%,0.7
Cc1ccc(C)c(OCc2cc(C(=O)NC3CCN(Cc4ccccc4)CC3)no2)c1,-1.4%,-1.7%,18.7%,·
COc1ccccc1CCNC(=O)c1ccc(Br)s1,-3.9%,7.5%,-42.0%,·
CC(C)CCCN1CCN=C1Nc1ccccc1,-0.1%,-0.5%,1.0%,·

# Some of these compounds in order of their number in Rango-impB inh, largest number first:
SMILES,Rango-impB inh,Rango dissoc inh,miR-21 reporter,GLA inh pH 4.5
Brc1ccccc1OCCNCc1ccccc1,2.4%,0.1%,-27.2%,5.2
O=C(NCCc1ccccc1)c1cnc2ccccc2n1,2.2%,-5.6%,-57.1%,·
Cc1ccccc1-c1nc(CN2CCC(C(=O)NCCCN3CCCC3)CC2)c(C)o1,1.1%,1.5%,-13.9%,4.0
CCOc1ccc(CCNS(=O)(=O)c2c(C)n[nH]c2C)cc1OCC,-3.9%,0.4%,0.2%,-0.3

# Continued.
SMILES,Rango-impB inh,Rango dissoc inh,miR-21 reporter,GLA inh pH 4.5
Cc1ccc(NC(=O)CN2C(=O)N/C(=C/c3ccc(C)o3)C2=O)cc1,-5.1%,-26.3%,-1.7%,3.2
Cc1ccc(S(=O)(=O)NCCC(=O)NCC(c2cccs2)N(C)C)cc1C (configuration not stated),-3.6%,15.4%,·,·
COc1cc(OC)c(NS(=O)(=O)c2ccc3c(c2)NC(=O)CO3)cc1Cl,0.1%,7.5%,-0.4%,·
COc1ccc(N2CCN(C(=O)CSc3nnc(C)c(=O)[nH]3)CC2)cc1,-1.8%,-0.3%,0.8%,1.8
CC(C)(C)C(=O)N1N=C(c2ccc(NS(C)(=O)=O)cc2)CC1c1cccs1 (configuration not stated),3.0%,-4.8%,18.7%,8.5
Cc1ccc(C2=NC(C)(C)N=C2SCC(=O)Nc2ccc(Cl)cc2)cc1,-5.1%,-16.7%,7.2%,-8.0
CC(C)(C)NC(=O)CSc1nc2ccc(Nc3nc(N4CCOCC4)nc(N4CCOCC4)n3)cc2s1,-1.6%,-2.1%,19.4%,-0.4
Cc1cnc(CNC(=O)CC2C(=O)NCCN2Cc2ccccc2C(F)(F)F)cn1 (configuration not stated),?,-24.1%,-1.0%,·
Cc1ccc(-c2csc(NC(=O)CSc3ncn(-c4ccccc4)n3)n2)cc1,-0.3%,-16.1%,-20.5%,7.3
CCn1ncc(/C=N\NC(=O)Cc2ccc([N+](=O)[O-])cc2)c1C,2.5%,-0.1%,-13.3%,5.9
O=C(CCS(=O)(=O)c1ccccc1)Nc1cccc(-c2nc3ccccc3s2)c1,6.3%,-7.5%,-18.5%,10.5
O=C1CN(C(=O)c2ccccc2F)C(c2ccccc2)c2cc(F)ccc2N1 (configuration not stated),-4.0%,9.7%,13.2%,·
CCS(=O)(=O)N1CCC(C(=O)NCCN2CCOCC2)CC1,-5.2%,-7.8%,-7.1%,-3.0
O=C(NCC(c1ccco1)N1CCN(c2ccccc2)CC1)c1ccco1 (configuration not stated),?,-12.4%,·,·
Cc1ccc(NCc2ccco2)cc1C,-0.5%,-16.5%,-5.2%,5.3
COc1ccccc1NC(=O)C1CC(=O)N(c2ccc(F)cc2)C1 (configuration not stated),-1.1%,6.1%,-8.1%,-24.4
CN(Cc1ccc(-n2cccn2)cc1)Cc1cn(C)nc1-c1ccccc1F,-2.0%,0.0%,-0.6%,-4.1
COc1cc(NC(=O)CSc2nc(C)cc(C)n2)cc(OC)c1OC,0.3%,-5.5%,-0.8%,-19.1
COC(=O)c1sc2nc3c(cc2c1N)COC(C)(C)C3,?,?,-53.6%,-4.1
COc1ccc(NC(=O)c2ccsc2NC(C)=O)cc1,0.4%,-13.0%,-9.8%,-16.8
COc1ccccc1NC(=O)CSc1nnc(CSc2nc(C)cc(C)n2)o1,-3.8%,0.2%,-1.6%,-7.1
O=S(=O)(c1ccc(NCCCO)nc1)N1CCOCC1,-0.2%,-3.1%,·,·
COC(=O)C(C(=O)OC)C1C=CCN(C(C)=O)C1 (configuration not stated),2.5%,-1.5%,·,·
O=S(=O)(NCCc1ccncc1)c1ccc(S(=O)(=O)N2CCCCCC2)cc1,0.6%,-3.8%,-2.6%,-10.2

# Retrieved by compound from the list above (two):
SMILES,Rango-impB inh,Rango dissoc inh,miR-21 reporter,GLA inh pH 4.5
CC(C)CCCN1CCN=C1Nc1ccccc1,-0.1%,-0.5%,1.0%,·
O=C(/C=C/c1c(Cl)nc2ccccn12)N1CCN(c2ccc(F)cc2)CC1,0.9%,5.1%,-6.1%,3.2

# Following part
SMILES,Rango-impB inh,Rango dissoc inh,miR-21 reporter,GLA inh pH 4.5
CCCCCOc1ccc(OC(=O)c2ccncc2)cc1,0.2%,-6.2%,-26.6%,-3.8
CC(NCC(O)COc1ccccc1)C1COc2ccccc2O1 (configuration not stated),3.2%,-5.1%,-8.9%,·
COC(=O)CCC(=O)NNC(=O)c1cccc(Cl)c1,3.0%,3.9%,-3.6%,-2.9
O=c1c(-c2ccc(Cl)cc2)cnc2n1CCS2,-0.9%,-21.9%,-43.0%,7.7
O=C(COC(=O)CC1CCCC1)Nc1ccc(Br)cc1F,5.4%,0.7%,·,·
O=C1C2CC=CCC2C(=O)N1c1ccc(NCCc2ccccc2)c([N+](=O)[O-])c1 (configuration not stated),4.2%,11.4%,0.7%,-0.3
COc1cccc(N2CCN(Cc3ncc(-c4ccccc4)o3)CC2)c1,-0.9%,8.6%,-7.7%,·
Cc1ccc(NC(=O)CN(C)C(=O)COc2ccc(C(=O)c3ccc(F)cc3)cc2)cc1,-0.4%,8.4%,18.5%,-17.4
CN(Cc1nc2ccccc2n1C)c1ccccc1,5.8%,-1.7%,-18.0%,·
COc1ccc(C(=O)C2CCCN(C(=O)c3cc(C4CC4)[nH]n3)C2)c(C)c1 (configuration not stated),-3.2%,5.9%,-9.3%,·
CCOc1ccc(C(=O)NCCCN2CCCC2=O)cc1,-3.4%,-29.7%,-13.9%,9.7
O=C(O)CN1C(=O)CC(c2ccccc2)CC1=O,0.6%,-9.0%,0.9%,·
Cc1ccc(NC(=O)c2ccc(OCc3c(C)noc3C)cc2)nc1,0.2%,-19.0%,·,·
O=C(Nc1ccc(NC(=O)c2cccs2)c(Cl)c1)c1cccs1,1.4%,-10.5%,-46.8%,·
COC(=O)c1ccc(/C=N\n2c(C)nnc2C)cc1,-3.2%,-10.3%,-6.1%,0.8
Cc1ccc(CN2CCN(/N=C/c3cccn3C)CC2)c(C)c1,?,-0.7%,-1.1%,-1.2
CC(C)C(NC(=O)c1ccccc1F)C(=O)OCC(=O)c1ccc(F)cc1 (configuration not stated),-1.2%,12.4%,-19.6%,-8.2
Cc1ccc(S(=O)(=O)NC2(C(F)(F)F)NC(=O)N(CCc3ccccc3)C2=O)cc1 (configuration not stated),-1.7%,-5.7%,-0.7%&-9.8%,-6.6
CCCn1c(N)c(C(c2ccc(C(=O)OC)cc2)N2CCN(c3ccccc3)CC2)c(=O)[nH]c1=O (configuration not stated),-1.0%,6.0%,-0.2%,-7.7
CCCCn1c(N)c(N(CC(C)C)C(=O)c2oc3c(Cl)cccc3c2C)c(=O)[nH]c1=O,-1.2%,-8.9%,·,·
CN(C)c1ccc(/C=C(\NC(=O)c2ccccc2)C(=O)NCCCn2ccnc2)cc1,3.1%,-11.9%,0.2%,·
Clc1ccc(Oc2nc(N3CCOCC3)nc(N3CCOCC3)n2)c(C2CCCCC2)c1,0.7%,0.6%,·,·
CCCCn1c(N)c(N(CC(C)C)C(=O)Cc2ccc(S(=O)(=O)N3CCOCC3)s2)c(=O)[nH]c1=O,?,?,·,·
Cc1ccc(CNC(=O)c2cc3c(=O)n(C)c4ccccc4c3n2C)cc1,0.5%,7.6%,-3.5%,3.7

# High-throughput results as filed in PubChem BioAssay.
